# Assay outcomes (PubChem)
# Measles inh: inhibitors of measles virus growth in infected cells. z-score (no concentration beside the values). 33,000 compounds, 0.1% hits. AID 745. infected Vero cells, GFP fluorescence, 64 h; stronger effect = lower value;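 active = z-score under -3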;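 note: score is relative to mean and SD of the compound wells of a plate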
# An asterisk follows results filed as active. Not all compounds are listed, so the mix of outcomes need not match the whole.
SMILES,Measles inh
Cn1c(=NC(=O)c2ccc(C(C)(C)C)cc2)sc2cc(S(C)(=O)=O)ccc21,0.13
CCOC(=O)CSc1nc(N)c2c3c(sc2n1)COC(C)(C)C3,0.73
O=C(Nc1sc2c(c1C(=O)O)CCCCC2)c1ccccc1,0.37
CN(C)C1N(C(=O)c2ccccc2)N=C2c3ccccc3S(=O)(=O)N21 (centres undefined),0.1
CC(=O)NCCNC(=O)C1CCC(Cn2c(=O)[nH]c3ccsc3c2=O)CC1 (centres undefined),1.4
Fc1cnc(N2CCOCC2)nc1NCc1ccccc1,-0.72
CCOc1ccc(-n2c(C)nc3cc(C(=O)NCc4cccs4)ccc32)cc1,0.39
Nc1c(C(=O)c2ccccc2)sc2nc(C3CC3)cc(-c3cccs3)c12,1.7
CCSCCOC(=O)C1=C(C)NC2=C(C(=O)CC(c3cccs3)C2)C1c1coc2ccccc2c1=O (centres undefined),-0.08
CCCc1cc(=O)oc2cc(OCc3ccccc3Cl)ccc12,0.17
CC1=C(C(=O)OCC(C)C)C(c2ccncc2)C2=C(CC(c3ccccc3)CC2=O)N1 (centres undefined),-1.3
CC(C)(C)c1ccc(OCC(O)CN2CCN(c3ccccc3F)CC2)cc1 (centres undefined),-0.26
Cc1csc(=NC(=O)c2ccccc2)n1Cc1ccco1,-0.09
Cc1cc(C)cc(-n2c(=O)c3sccc3n(Cc3ccccc3)c2=O)c1,-0.98
CC1(C)Cc2ccccc2C(CC2=NC(C)(C)Cc3ccccc32)=N1,-0.93
CCOc1ccc(NC(=O)C2C3C=CC4(O3)C2C(=O)N(C(C)(C)C)C4C(=O)NC2CCCCC2C)cc1 (centres undefined),0.39
CC(C)NC(=O)C1C2C=CC3(CN(Cc4ccccc4Cl)C(=O)C13)O2 (centres undefined),-0.29
COc1ccccc1C1CC(=O)C2=C(C1)NC(C)=C(C(=O)OC1CCCC1)C2c1coc2ccccc2c1=O (centres undefined),0.88
O=c1oc2ccccc2cc1-c1nnc(-c2ccccc2)o1,1.2
O=[N+]([O-])c1ccc(Cl)c(S(=O)(=O)N2CCCN(S(=O)(=O)c3cc([N+](=O)[O-])ccc3Cl)CC2)c1,0.48
C=CCN1C(=O)CC(C(=O)Nc2ccc(Cl)cc2)SC1=Nc1ccc(C(=O)OCC)cc1 (centres undefined),-0.79
O=C(c1ccccc1F)N1CCN(c2ccc([N+](=O)[O-])c3ncccc23)CC1,-0.03
CCOC(=O)c1cnn(-c2ccccc2Cl)c1N,-0.12
CC(CCc1ccccc1)NC(=O)CSc1cc(=O)n(C)c2ccccc12 (centres undefined),1.2
CCc1nnc(NC(=O)c2c(-c3ccccc3Cl)noc2C)s1,-0.8
CC(C)CCn1c(=S)[nH]c2ccc(Cl)cc2c1=O,0
Cc1ccc(Nc2c(-c3ccccn3)nc3ccc(C)cn23)cc1,-1.4
COC(=O)C1=NNC2C(=O)N(c3cccc(Cl)c3)C(=O)C12 (centres undefined),-0.5
CC(=O)Nc1ccc2nc(NC(=O)c3ccc(OC(C)=O)cc3)sc2c1,0.85
COCCCNC(=O)C1CCN(c2nc3ccccc3o2)CC1,0.7
COc1cc2c(cc1NC(=O)Nc1ccccc1)oc1ccccc12,-0.21
Fc1ccccc1C1C=C(c2ccc(Br)cc2)Nc2nnnn21 (centres undefined),-0.2
COc1cccc(NC(=O)C2CCC(CNS(=O)(=O)c3ccc(Br)s3)CC2)c1 (centres undefined),-0.71
N#CCNC(=O)c1ccccc1Br,1.2
O=C(Cn1c(=O)n(-c2ccccc2)c(=O)c2sccc21)NC1CCCCC1,-0.32
Cc1cc(=O)[nH]c2nc(N)ccc12,0.77
CCOC(=O)C1=C(C)NC(C)=C(C(=O)OCC)C1C=Cc1ccccc1OC,-0.28
CC1CCCN(S(=O)(=O)c2ccc3[nH]c(=O)cc(C(=O)NC(C)c4ccccc4)c3c2)C1 (centres undefined),-0.23
Cn1c(=O)c2cc(C(=O)N3CCN(c4ccccc4F)CC3)sc2c2ccccc21,-0.63
CN(CC(=O)NCCc1ccc(S(N)(=O)=O)cc1)S(=O)(=O)c1ccc(Br)s1,0.18
NS(=O)(=O)c1ccc2c(c1)C1C=CCC1C(c1ccc([N+](=O)[O-])cc1)N2 (centres undefined),-1.7
COC(=O)c1cc(C(=O)NCc2ccccn2)cc([N+](=O)[O-])c1,0.88
O=C(O)C(NS(=O)(=O)c1ccccc1)c1ccccc1 (centres undefined),0.36
COc1ccc2c(c1)sc(=NC(=O)c1ccc(S(=O)(=O)N(C)Cc3ccccc3)cc1)n2C,-2.1
COc1ccccc1CNC(=O)CN(c1ccccc1OC)S(C)(=O)=O,1.8
O=C1C(=O)N(Cc2ccc(Cc3ccc(CN4C(=O)C(=O)c5ccccc54)cc3)cc2)c2ccccc21,0.06
Cc1csc(NC(=O)CNS(=O)(=O)c2cccs2)n1,-0.65
COCCNC(=O)c1nn(-c2cccc(OC)c2)c(=O)c2ccccc12,1.4
CCN(CC)c1ccc(C2Nc3cccc4cccc(c34)N2)c(O)c1,0.01
CCOC(=O)C1=C(C)NC2=C(C(=O)C(C(=O)OC)C(C)C2)C1c1ccc(OC(C)=O)cc1 (centres undefined),-0.63
# (continued)
SMILES,Measles inh
CCOc1ccc(NC(=O)CSc2nc3ccccc3c(=O)n2Cc2ccc3c(c2)OCO3)cc1,-0.43
CCc1ccc(-c2csc(Nc3ccc(S(=O)(=O)Nc4cc(C)on4)cc3)n2)cc1,-0.68
Cc1ccccc1Oc1ncnc(N)c1[N+](=O)[O-],0.92
Cc1c(NS(=O)(=O)c2ccc3c4c(cccc24)C(=O)N3)c(=O)n(-c2ccccc2)n1C,-0.04
CC(C)CSc1oc(-c2cccs2)nc1S(=O)(=O)c1ccc(F)cc1,1.4
CC1=C(C(=O)OC(C)C(C)(C)C)C(c2ccccc2)NC(=O)N1 (centres undefined),-1.8
CCC(Sc1nc2ccccc2c2nc3ccccc3n12)C(=O)NCc1ccco1 (centres undefined),-0.86
O=C1c2ccccc2C(=O)c2c(NC(=O)C(c3ccccc3)c3ccccc3)cccc21,-0.47
CN(C)c1ccc(C=Nc2ccccc2)cc1,0.52
COCCCNC(=O)C(=O)Nc1ccc(C)c(C)c1,0.87
CC1=C(C(=O)OCc2ccc(C)cc2)C(c2ccccc2OCc2ccccc2)NC(=O)N1 (centres undefined),-0.54
NS(=O)(=O)c1ccc(NC(=O)C23CC4CC(CC(C4)C2)C3)cc1,-0.42
Cc1cc(N2CCOCC2)nc2ccc(NC(=O)C3CCC(C(C)(C)C)CC3)cc12 (centres undefined),1.1
CC1CCc2c(oc3c2cc(NS(=O)(=O)c2ccccc2)c2ccccc23)C1 (centres undefined),-0.44
Cc1ccc(NC(=O)C(N)=O)cc1Cl,-1.1
O=C(C[n+]1ccccc1)Nc1ccccc1C(=O)O,0.63
COc1ccc(NC(=O)C2CCN(S(=O)(=O)c3ccc(F)cc3)CC2)cc1OC,0.12
COC(=O)C1C(=O)C2=C(CC1C)NC(C)=C(C(=O)OC1CCCCCC1)C2c1cccc(Cl)c1 (centres undefined),-1.7
COc1ccc(CCNC(=O)c2ccc(N3CC4CC(C3)c3cccc(=O)n3C4)c([N+](=O)[O-])c2)cc1OC (centres undefined),-1
O=C1c2ccccc2C(=O)C1c1cc(=O)[nH]c2c1ccc1ccccc12,-0.79
CC1=C(C)N(c2ccccc2)NC(=S)S1,0.84
Cc1ccc(N(CCCN2C(=O)c3cccc4cccc(c34)C2=O)C(=O)C(C)(C)C)c(C)c1,-0.13
Cc1ccc(NC(=O)C2CC(=O)N(Cc3ccccc3)C(=Nc3ccccc3)S2)c(C)c1 (centres undefined),0.2
Cc1ccccc1N1C(=O)c2ccc([N+](=O)[O-])cc2C1=O,0.45
CC(=O)Oc1ccc(N(C(C)=O)S(=O)(=O)c2ccc(C)cc2)cc1,-0.25
CN1CCN(CCCNC(=O)c2ccc3c(=O)n(CCc4ccccc4)c(=O)[nH]c3c2)CC1,-0.85
CCOc1ccc(NC(=O)c2cnc(Nc3ccc(C)c(Cl)c3)c3ccccc23)cc1,-0.54
Cc1[nH]nc2c1C(c1ccc(F)cc1)CC(=O)N2 (centres undefined),-1.8
O=C1c2ccccc2NC(c2ccc(F)cc2)N1Cc1ccccc1 (centres undefined),-0.89
CCCCN(C)S(=O)(=O)c1ccc(C(=O)N=c2sc3cc(OC)ccc3n2CC)cc1,-0.22
CCc1ccc(-n2c(=O)c3c(C)c(C)sc3n(CC(=O)Nc3ccccc3C(=O)OC)c2=O)cc1,0.44
CCCCCOc1ccc(NC2=CC(=O)C(=O)c3ccccc32)cc1,0.25
CCOC(=O)c1c(-c2ccc(C)cc2C)csc1NC(=O)C1CCCCC1C(=O)O (centres undefined),-0.05
CCOc1ccc(C2NC(=S)NC(C)=C2C(=O)Nc2ccccc2C)cc1 (centres undefined),0.18
COc1ccc(OCCSc2nc(C)cc(=O)[nH]2)cc1,0.51
CCCCN(C)S(=O)(=O)c1ccc(C(=O)Nc2nc3c(s2)COc2ccccc2-3)cc1,-0.13
Cc1ccc(Cl)cc1N1C(=O)C2CCCCC2C1=O (centres undefined),-0.52
COc1ccc2c(c1)C(OC(C)=O)C(C)(C)C(c1cccs1)N2 (centres undefined),-0.19
CCOC(=O)c1ccc(OCc2c(C)noc2C)cc1,0.35
O=[N+]([O-])c1ccc(N2CN=C(c3ccccc3)NC2=S)cc1,-0.03
CC1(c2ccccc2)CC(C)(C)N(C(=O)CSc2ccccn2)c2ccccc21 (centres undefined),0.18
CCc1nc2cccc([N+](=O)[O-])c2nc1CC,-1.9
CC(C)CCNC(=O)C1c2ccccc2C(=O)N(C)C1c1cccs1 (centres undefined),-0.45
CCOC(=O)C1=CN(c2cc(C)cc(C)c2)C=C(C(=O)OCC)C1c1ccc(F)cc1,-0.11
O=C(CSc1nc2c([nH]c3ccccc32)c(=O)n1-c1ccc(F)cc1)NCCc1ccccc1,1
COc1ccc2oc(=O)c(-c3csc(Nc4cccc(C(C)=O)c4)n3)cc2c1,-0.74
NC(=O)CSc1oc(-c2ccco2)nc1S(=O)(=O)c1ccc(F)cc1,-1.2
CCCNC(=O)Cn1cnc2sc(C(=O)N3CCC(C)CC3)c(C)c2c1=O,-0.14
COc1ccc(C2C(C(=O)OCC3CCCO3)=C(C)NC3=C2C(=O)CC(C)(C)C3)cc1 (centres undefined),1.1
Cc1cc(C)cc(-n2nnc(C(=O)NCc3ccccc3)c2N)c1,0.12
# Next results follow.
SMILES,Measles inh
COc1ccc(N2CCN(C(=O)c3c(C)noc3C)CC2)cc1,2
O=C(CCCCCn1c(=S)[nH]c2ccccc2c1=O)NCc1cccnc1,-0.31
CC(C)CNC(=O)CN(c1ccc(Oc2ccccc2)cc1)S(C)(=O)=O,-0.3
CC(C)c1ccc(NS(=O)(=O)c2ccc3[nH]cc(C(=O)NCCc4ccccc4)c(=O)c3c2)cc1,0.94
CCOc1ccc(C2Sc3ccccc3NC3=C2C(=O)OC3)cc1 (centres undefined),0
CCOc1ccc(C2C(=O)N(C3CCCCC3)CC(=O)N2C2CCCc3ccccc32)cc1OC (centres undefined),0.81
CC1CCc2c(sc(N)c2C(=O)Nc2cccc(Cl)c2)C1 (centres undefined),1.3
COc1ccccc1CNC(=O)C1CCC(CNS(=O)(=O)c2cccs2)CC1 (centres undefined),-0.61
COc1ccccc1N(CC(=O)Nc1ccc2c(c1)OCO2)S(C)(=O)=O,-0.15
COc1ccc(Cl)cc1NC(=O)C(Cc1ccccc1)NS(=O)(=O)c1ccc(Br)s1 (centres undefined),0.38
Cc1ccc2c(c1)C(C)(c1ccccc1)CC(C)(C)N2C(=O)c1cccc([N+](=O)[O-])c1 (centres undefined),-0.11
CC(C)(C)c1ccc(CSc2nc3ccccc3c(=O)n2CCc2ccc(S(N)(=O)=O)cc2)cc1,-0.45
O=c1[nH]cc(-n2c(=O)c3ccccc3c3ccccc3c2=O)c(=O)[nH]1,0.23
O=C(C1CCCN(S(=O)(=O)c2ccc(Br)s2)C1)N1CCN(c2ccccc2F)CC1 (centres undefined),1.8
Cc1nc2c(C(=O)NCc3cccs3)c[nH]n2c(=O)c1Cc1ccccc1Cl,-1.1
COc1cc(NS(=O)(=O)c2ccc3c(c2)oc(=O)n3C)cc(OC)c1,1.3
O=C1c2ccc(-c3nc4ccccc4c(=O)o3)cc2C(=O)N1C1CCCCC1,-0.65
COc1ccc(-c2cc(-c3ccc(F)cc3)nc(N3CCOCC3)n2)cc1,-0.46
COc1cc(NC(=O)C(C)C)c(OC)cc1Cl,-0.05
CC(C)c1ccc(C(O)c2nccn2C)cc1 (centres undefined),0.41

# Part of the list above, with bars between the fields.
structure | Measles inh
Cc1cc(C)cc(-n2nnc(C(=O)NCc3ccccc3)c2N)c1 | 0.12
COc1ccc(N2CCN(C(=O)c3c(C)noc3C)CC2)cc1 | 2
O=C(CCCCCn1c(=S)[nH]c2ccccc2c1=O)NCc1cccnc1 | -0.31
CC(C)CNC(=O)CN(c1ccc(Oc2ccccc2)cc1)S(C)(=O)=O | -0.3
CC(C)c1ccc(NS(=O)(=O)c2ccc3[nH]cc(C(=O)NCCc4ccccc4)c(=O)c3c2)cc1 | 0.94
CCOc1ccc(C2Sc3ccccc3NC3=C2C(=O)OC3)cc1 (centres undefined) | 0
CCOc1ccc(C2C(=O)N(C3CCCCC3)CC(=O)N2C2CCCc3ccccc32)cc1OC (centres undefined) | 0.81
CC1CCc2c(sc(N)c2C(=O)Nc2cccc(Cl)c2)C1 (centres undefined) | 1.3
COc1ccccc1CNC(=O)C1CCC(CNS(=O)(=O)c2cccs2)CC1 (centres undefined) | -0.61
COc1ccccc1N(CC(=O)Nc1ccc2c(c1)OCO2)S(C)(=O)=O | -0.15
COc1ccc(Cl)cc1NC(=O)C(Cc1ccccc1)NS(=O)(=O)c1ccc(Br)s1 (centres undefined) | 0.38
Cc1ccc2c(c1)C(C)(c1ccccc1)CC(C)(C)N2C(=O)c1cccc([N+](=O)[O-])c1 (centres undefined) | -0.11
CC(C)(C)c1ccc(CSc2nc3ccccc3c(=O)n2CCc2ccc(S(N)(=O)=O)cc2)cc1 | -0.45
O=c1[nH]cc(-n2c(=O)c3ccccc3c3ccccc3c2=O)c(=O)[nH]1 | 0.23
O=C(C1CCCN(S(=O)(=O)c2ccc(Br)s2)C1)N1CCN(c2ccccc2F)CC1 (centres undefined) | 1.8
Cc1nc2c(C(=O)NCc3cccs3)c[nH]n2c(=O)c1Cc1ccccc1Cl | -1.1
COc1cc(NS(=O)(=O)c2ccc3c(c2)oc(=O)n3C)cc(OC)c1 | 1.3
O=C1c2ccc(-c3nc4ccccc4c(=O)o3)cc2C(=O)N1C1CCCCC1 | -0.65
COc1ccc(-c2cc(-c3ccc(F)cc3)nc(N3CCOCC3)n2)cc1 | -0.46
